Screens: PubChem, National Center for Advancing Translational Sciences (NCATS)
VACV mCherry inh = vaccinia inhibition (mCherry reporter); Vaccinia virus mCherry reporter infection, fluorescence; about a quarter of the inactives have no number; Potency, µM (series often up to 36.5 µM), for inactives: at the highest dose activity change, negative = inhibition, most hits filed as inhibitors; actives 0.63% (n = 310,000); active = well fitted inhibition curve with a large enough effect; inconclusive = small, poorly fitted or top-dose-only effect; inactive = no such curve, though single readings can be large or run the other way; tested in A549 cells; also: nearly all actives have a fitted effect of over 35% in size; inactives centre near -10
Vaccinia Venus = inhibitors of vaccinia virus (Venus reporter); Potency, µM (highest dose often 36.5 µM), without a hit: top-dose activity change, negative = inhibition, actives largely listed as inhibitors; Vaccinia virus Venus reporter expression, fluorescence; actives 0.46% (n = 330,000); AID 720580; active means well fitted inhibition curve with a large enough effect; inconclusive means small, poorly fitted or top-dose-only effect; inactive means no such curve, though single readings can be large or run the other way; tested in A549 cells; also: nearly all actives have a fitted effect of over 30% in size; inactives centre near -10
* hit, by the source's call; i = inactive; ? = inconclusive; . = no result given; [ ] = remark or other dose. % is scaled to controls: 0 for no effect and ±100 for the full control effect; potency is read from the fitted curve at half-maximal effect.

SMILES	VACV mCherry inh	Vaccinia Venus
O=C(Cc1ccccc1)NNC1=NS(=O)(=O)c2ccccc21	-0.8%	5.2%
COc1cccc2cc(C(=O)NCc3ccccc3)c(=N)oc12	i	-4.5%
COc1cccc(C(=O)NC2CCN(CC(=O)Nc3cccc(C)c3C)CC2)c1	-4.1%	-9.9%
CCCCOc1ccc(S(=O)(=O)N2CCCCCC2)cc1	4.6%	1.2%
CCOC(=O)N1CCC(N2CCCC(C(=O)c3ccccc3OC)C2)CC1 (stereo not given)	-17.1%	-2.4%
Nc1sccc1C(=O)NC1CC1	-3.2%	9.8%
COc1cccc(NC(=O)c2cc(Cl)nnc2Cl)c1	6.31µM*	?
Cc1c(CC(=O)NC(C)C)c(=O)oc2cc3c(cc12)CCC(C)(C)O3	-16.8%	-16.3%
COC(=O)C1=C(C(=O)OC)[C@@H]2N(C)c3ccccc3[C@@]23C[C@@H](C(=O)OC)N(C(=O)c2ccc(Br)cc2)C3=N1	-25.5%	?
O=C(NCC(=O)N1CCCC1)c1ccc(Br)cc1	-7.5%	-1.8%
CCOC(=O)c1c(C)[nH]c(C)c1S(=O)(=O)N1CCC(C(=O)Nc2ccc(OCC)cc2)CC1	-8.5%	1.9%
CCOC(=O)c1[nH]c(C)c(/C(O)=C2\C(=O)C(=O)N(CCCn3ccnc3)C2c2ccncc2)c1C (stereo not given)	.	-5.4%
CCOc1ccccc1C=NNC(=O)C1CC1	i	-2.0%
COc1ccc(C2=C(Nc3ccc(C)cc3)c3ccccc3C2=O)cc1	-27.3%	-4.0%
CC(=O)c1cc(CC(=O)N2CCc3c([nH]c4ccccc34)C2c2ccccn2)cs1 (stereo not given)	?	-11.2%
COC(=O)c1cccc(N2C(=O)C3CC=CCC3C2=O)c1 (stereo not given)	-13.0%	-7.0%
CCCCc1ccccc1NC(=S)NC1CCCC1	i	3.6%
O=c1oc2c(CN3CCOCC3)c(O)ccc2cc1-c1ccc(Cl)cc1	-12.6%[7.34 µM]	-7.1%[7.34 µM]
Nc1ccc(N2CCN(C(=O)c3cccs3)CC2)cc1	.	6.6%
Cc1cccc(NC(=O)N2CCC(NC(=O)c3ccco3)CC2)c1	0.3%	-5.9%

A run of entries from further up, for reference:
SMILES	VACV mCherry inh	Vaccinia Venus
O=C(Cc1ccccc1)NNC1=NS(=O)(=O)c2ccccc21	-0.8%	5.2%
COc1cccc2cc(C(=O)NCc3ccccc3)c(=N)oc12	i	-4.5%

Additional entries follow.
SMILES	VACV mCherry inh	Vaccinia Venus
CC(C)(C)C(=O)N1Cc2cc(N3CCCCC3)ccc2-n2nncc2C1	i	-2.4%
CCCCOc1ccc(CSC(CC(=O)O)C(=O)O)cc1 (stereo not given)	.	2.9%
O=C(NC1CC(=O)N(c2ccc(Cl)cc2)C1)c1ccc(S(=O)(=O)N2CCOCC2)cc1 (stereo not given)	-19.0%	-18.4%
CCN(CC)CCN(C(=O)c1cccc([N+](=O)[O-])c1)c1nc2ccc(OC)cc2s1	-9.6%	-2.0%
CN(Cc1ccon1)C(=O)C1CCC(=O)N(Cc2ccc(Cl)cc2)C1 (stereo not given)	i	-15.2%
CN(C)c1ccc(NC(=O)CSc2nnc(C3CCCCC3)n2N)cc1	?	-11.3%
COC(=O)c1ccc(C(=O)OC)c(NC(=S)N2CC(C)CC(C)C2)c1 (stereo not given)	-17.7%	-7.1%
Cc1nc2nc(C)c(CCC(=O)NCc3cccc(Cl)c3)c(C)n2n1	-4.6%	-2.0%
CCOC(=O)c1c(C)oc2nc(C)nc(NCC3CCN(Cc4ccc(F)cc4)CC3)c12	-17.4%	-9.4%
COc1ccc(Cl)c(-c2cc(C(=O)NCc3ccc(C(F)(F)F)cc3)[nH]n2)c1	-12.1%	-7.9%
CCOC(=O)N1CCN(C(=O)C[C@@H]2C[C@@]3(C(=O)OCC)CCC=C3N(Cc3ccc(Cl)cc3Cl)C2=O)CC1	-17.9%	-8.7%
CN(C)C(=O)c1c(NC(=O)c2ccccc2)sc2c1CCC2	i	-0.8%
COc1ccc(NC(=O)Cn2c(=O)oc3cc(S(=O)(=O)N4CCC(C)CC4)ccc32)c(OC)c1	-18.4%	-18.1%
Cc1ccccc1NC(=O)Cn1c(=O)n(CCCCCC(=O)NCc2ccc3c(c2)OCO3)c(=O)c2sccc21	-7.8%	-10.9%
COc1ccccc1N1CCN(C(=O)CCS(=O)(=O)c2cc(Br)cc3c2N(C(C)=O)CC3)CC1	-11.0%	-2.4%
Cc1nnc(NC(=O)c2ccccc2Br)s1	-13.5%	-8.3%
CCN1CCN(c2oc(-c3ccc(COc4ccc(C)cc4)o3)nc2C#N)CC1	-3.7%	0.0%
Cc1nc2ccccn2c1/C(O)=C1\C(=O)C(=O)N(CCCn2ccnc2)C1c1ccncc1 (stereo not given)	.	-14.0%
CC1(c2ccccc2)CC(C)(C)N(C(=O)c2ccccc2Cl)c2ccccc21 (stereo not given)	-8.0%	-9.4%
Cc1c(NC(=O)C(C)OC(=O)c2cccnc2)c(=O)n(-c2ccccc2)n1C (stereo not given)	i	-0.1%

Ordered by length of the SMILES (smallest number first): some entries from above.
SMILES	VACV mCherry inh	Vaccinia Venus
CCOc1ccccc1C=NNC(=O)C1CC1	i	-2.0%
CCCCc1ccccc1NC(=S)NC1CCCC1	i	3.6%
Nc1ccc(N2CCN(C(=O)c3cccs3)CC2)cc1	.	6.6%
COC(=O)c1cccc(N2C(=O)C3CC=CCC3C2=O)c1 (stereo not given)	-13.0%	-7.0%
CN(C)C(=O)c1c(NC(=O)c2ccccc2)sc2c1CCC2	i	-0.8%
Cc1cccc(NC(=O)N2CCC(NC(=O)c3ccco3)CC2)c1	0.3%	-5.9%
CN(C)c1ccc(NC(=O)CSc2nnc(C3CCCCC3)n2N)cc1	?	-11.3%
COc1ccc(C2=C(Nc3ccc(C)cc3)c3ccccc3C2=O)cc1	-27.3%	-4.0%
Cc1nc2nc(C)c(CCC(=O)NCc3cccc(Cl)c3)c(C)n2n1	-4.6%	-2.0%
CC(C)(C)C(=O)N1Cc2cc(N3CCCCC3)ccc2-n2nncc2C1	i	-2.4%
COC(=O)c1ccc(C(=O)OC)c(NC(=S)N2CC(C)CC(C)C2)c1 (stereo not given)	-17.7%	-7.1%
CCN1CCN(c2oc(-c3ccc(COc4ccc(C)cc4)o3)nc2C#N)CC1	-3.7%	0.0%
CC1(c2ccccc2)CC(C)(C)N(C(=O)c2ccccc2Cl)c2ccccc21 (stereo not given)	-8.0%	-9.4%
Cc1c(NC(=O)C(C)OC(=O)c2cccnc2)c(=O)n(-c2ccccc2)n1C (stereo not given)	i	-0.1%
CC(=O)c1cc(CC(=O)N2CCc3c([nH]c4ccccc34)C2c2ccccn2)cs1 (stereo not given)	?	-11.2%
COc1ccc(Cl)c(-c2cc(C(=O)NCc3ccc(C(F)(F)F)cc3)[nH]n2)c1	-12.1%	-7.9%
CCN(CC)CCN(C(=O)c1cccc([N+](=O)[O-])c1)c1nc2ccc(OC)cc2s1	-9.6%	-2.0%
O=C(NC1CC(=O)N(c2ccc(Cl)cc2)C1)c1ccc(S(=O)(=O)N2CCOCC2)cc1 (stereo not given)	-19.0%	-18.4%
COc1ccccc1N1CCN(C(=O)CCS(=O)(=O)c2cc(Br)cc3c2N(C(C)=O)CC3)CC1	-11.0%	-2.4%
COc1ccc(NC(=O)Cn2c(=O)oc3cc(S(=O)(=O)N4CCC(C)CC4)ccc32)c(OC)c1	-18.4%	-18.1%
Cc1ccccc1NC(=O)Cn1c(=O)n(CCCCCC(=O)NCc2ccc3c(c2)OCO3)c(=O)c2sccc21	-7.8%	-10.9%
CCOC(=O)N1CCN(C(=O)C[C@@H]2C[C@@]3(C(=O)OCC)CCC=C3N(Cc3ccc(Cl)cc3Cl)C2=O)CC1	-17.9%	-8.7%

Next part:
SMILES	VACV mCherry inh	Vaccinia Venus
Nc1[nH]c(C(=O)c2ccccc2)c(-c2ccc(Cl)cc2Cl)c1C(=O)c1ccc(Br)cc1	-17.7%	-13.3%
CC1CCC(NS(=O)(=O)c2ccc(Cl)s2)CC1 (stereo not given)	-10.3%	-8.3%
COC(=O)c1cnc(Oc2ccc(NC(=O)NC(=O)c3c(F)cccc3F)cc2)cc1C(F)(F)F	10.5%	0.0%
CC1(C)CC(=O)C=C(C#CC2(O)CCCCC2)C1	-12.0%	-18.5%
O=C(NCc1ccccn1)C1CCN(S(=O)(=O)c2ccccc2C(F)(F)F)CC1	-16.3%	-11.1%
CCOC(=O)c1sc(=S)n(-c2ccccc2OC)c1N	.	0.8%
COC(=O)[C@]1(Cc2ccccc2)N[C@H](c2ccc(-c3ccc(OC)cc3)cc2)[C@@H]2C(=O)N(C)C(=O)[C@@H]21	-5.5%	-10.9%
CCOC(=O)N1CCN(C(=O)C[C@@H]2C[C@@]3(C(=O)OC)CCCCC=C3N(CCC3=CCCCC3)C2=O)CC1	-13.9%	-3.7%
O=C(NNC(=S)NCc1ccccc1)c1ccc(OC(F)F)cc1	-2.1%	-14.8%
O=C(O)C1CC(=O)N(c2ccc(OCc3c(F)cccc3Cl)cc2)C1 (stereo not given)	.	-14.0%
COc1cc(N(C)C)c([N+](=O)[O-])cc1C(=O)N1CCN(Cc2ccccc2)CC1	-4.1%	-0.5%
CCc1cccc(NC(=O)Cn2c(=O)n(Cc3ccccc3)c(=O)c3c(C)c(C(=O)N(C)C)sc32)c1	-24.9%	-10.4%
O=C1CCSc2ccc(Cl)cc2N1Cc1ccccc1	.	-16.9%
O=C(CSc1nncc(=O)[nH]1)NC1CCCCC1	1.4%	1.8%
COc1cc(C=O)c(Br)cc1OC1CCCC1	-15.9%	-10.4%
O=c1cc(C(F)(F)F)[nH]c2c(OC(F)(F)F)cccc12	i	-24.4%
CCOP(=O)(OCC)C(Nc1cccc(C(F)(F)F)c1)c1ccc(C)cc1 (stereo not given)	-9.9%	-0.5%
O=C(c1cnc2sccn2c1=O)N1CCN(c2ccccc2Cl)CC1	-4.1%	-16.9%
O=C1C=C(NCCOC23CC4CC(CC(C4)C2)C3)C2(CCCCC2)O1	-2.3%	-4.5%
Cc1occc1C(=O)NCc1ccccc1F	-8.0%	-3.7%

Single values from the list.
VACV mCherry inh result of CC1(C)CC(=O)C=C(C#CC2(O)CCCCC2)C1 stands at -12.0%
Vaccinia Venus result of CCOC(=O)N1CCN(C(=O)C[C@@H]2C[C@@]3(C(=O)OC)CCCCC=C3N(CCC3=CCCCC3)C2=O)CC1 stands at -3.7%

Further records
SMILES	VACV mCherry inh	Vaccinia Venus
COCc1ccc(C(=O)N2CCCC(N3CCN(c4ccccc4C)CC3)C2)s1 (stereo not given)	-9.5%	-11.7%
NC(=O)CSc1nnc(Cc2csc(Nc3ccc(F)cc3)n2)n1Cc1ccccc1	-11.3%	-3.6%
Cc1cc(C)c2cc(C#N)c(SCC(=O)NCC3CCCO3)nc2c1 (stereo not given)	-18.2%	-10.0%
CCOC(=O)C(C)Sc1nc(=O)n2cc(C)ccc2n1 (stereo not given)	-3.3%	-0.5%
O=C(Nc1ccc(Cl)cc1)Nc1cc([N+](=O)[O-])ccc1F	-3.1%	-10.0%
Nc1ncnc2c1ncn2[C@@H]1O[C@H](CNC(=O)[C@@H]2CCN2)[C@@H](O)[C@H]1O	-4.5%	-12.8%
COC(=O)c1sc(N2C(=O)c3oc4ccccc4c(=O)c3C2c2ccc(O)cc2)nc1C (stereo not given)	i	-21.1%
COc1ccc(CN(C)C(=O)Cc2ccc(OC)c(S(=O)(=O)N3CCOCC3)c2)cc1	-1.8%	-12.5%
O=C(NCC1CCCO1)c1ccc(COc2ccc(Br)cc2)cc1 (stereo not given)	?	?
O=C(c1c[nH]c2ccccc12)C(O)C(c1ccccc1)N1CCOCC1 (stereo not given)	.	-10.4%
CSc1ccc(CN2CCC(C)(Oc3ccc(F)cc3)C2)cc1 (stereo not given)	1.8%	-3.2%
CN(C)c1cc2c(cc1NC(=O)c1ccccc1Cl)n(C)c(=O)n2C	-14.2%	-23.8%
N#Cc1cccc(CSc2ncnc(N)n2)c1	-3.1%	-5.2%
O=C(Nc1ccc(Cl)cn1)c1cccc(S(=O)(=O)N2CCCC2)c1	-9.3%	-4.3%
CCOc1ccc2[nH]c(=O)c(CN(CCO)C(c3nnnn3C3CCCCC3)C(C)C)cc2c1 (stereo not given)	-13.4%	-6.6%
CC(C)NC(=O)c1cc(-c2cccs2)on1	-21.0%	-13.8%
CCOC(=O)c1[nH]c(C)c(C(=O)NC(C)(C)C)c1C	.	-19.2%
N#Cc1ccc2ccn(CC(=O)NCc3ccccc3)c2c1	?	?
CC(C)CCn1c(=O)c2ccccc2n2c(=S)[nH]nc12	-2.4%	-0.6%
Cc1ccc2nc3c(cc(C(=O)NCc4ccco4)c(=N)n3Cc3ccco3)c(=O)n2c1	-2.8%	-2.6%
CCOC(=O)N1CCc2c(sc(NC(=O)c3ccc(S(=O)(=O)N4CCCC4)cc3)c2C#N)C1	-28.7%	?
CC1=C(C(=O)Nc2ccccc2)C(c2ccco2)C(C#N)=C(SCC(N)=O)N1 (stereo not given)	-13.7%	-15.7%
Cc1nc2c(C)cccn2c1/C(O)=C1\C(=O)C(=O)N(CCN2CCOCC2)C1c1ccncc1 (stereo not given)	-9.2%[1.46 µM]	-21.3%
CC(NC(=O)c1cccnc1)C(c1cccs1)N1CCN(C)CC1 (stereo not given)	-4.9%	-7.5%
CC(C)(C)C(=O)N1CCc2cc(-c3csc(N)n3)ccc21	?	-28.3%
O=C(Nc1cccc(OC(F)(F)F)c1)C1Cc2c(-c3ccc4c(c3)OCO4)ccnc2O1 (stereo not given)	38.9%[activator]	10.4%
O=C1Nc2ccccc2C1=Nc1cccc([N+](=O)[O-])c1	i	-4.0%
COc1cc(/C=N\NC(=O)c2sc(N)nc2C)cc(OC)c1OC	?	-24.1%
